Screening results: PubChem, ICCB-Longwood Screening Facility, Harvard Medical School
LANA-nucl inh: inhibitors of KSHV LANA binding to nucleosomes. actives 0.3% (n = 51,000). z-score (no concentration beside the values). AID 720717. FITC-LANA1-23 / chicken nucleosome fluorescence polarization; hits give low values;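 active = both repeat wells score below -2 in polarization z-score versus plate sample wells, excluding overly bright wells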;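 note: 100 nL library stock added to about 30 µL; numbers are from one replicate; some results filed as inactive read as strong as hits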
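test system = FITC-LANA peptide and chicken nucleosomes | amount = 240 nM purified chicken nucleosomes (480 nM peptide binding sites), final | reagent = 50 nM FITC-LANA1-23 probe | medium = TEN-BT buffer, pH 7.5 | doses = single compound addition by pin transfer, 100 nL per well | timing = 10–45 min, room temperature | detection = fluorescence polarization | repeats = duplicate plates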
BasE inh: BasE siderophore biosynthesis inhibition; purified BasE, fluorescence polarization binding displacement; inhibition, % (concentration not given with the values); actives 0.1% (n = 84,000);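 active = both replicates above 25% with normal brightness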;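 note: 0% = negative plate control signal and 100% = positive plate control signal; stock transfer was 100 nL into about 30 µL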
The depositor's hits bear a star; . = not tested or not shown. Not all compounds are listed; the hit share may differ from the screen's.

SMILES	LANA-nucl inh	BasE inh
COC(=O)C1CCN(C2=NS(=O)(=O)c3ccccc32)CC1	.	-1.2
C=CCn1c(P(C)(=O)N2CCCCC2)nc2ccccc21 (configuration not stated)	.	1.1
Cc1ccc(C2CC(=O)c3c(n[nH]c3C)C2)cc1 (configuration not stated)	-0.334	-0.7
O=C1Nc2ccccc2O/C1=C\c1ccc(C(=O)NCc2ccco2)cc1	0.149	-1.4
COCCn1c(CCCO)nc2ccccc21	-0.012	-0.8
Cc1csc2sc(-c3ccnc(SCC(=O)NCc4ccccc4)n3)c(C)c12	.	0.7
O=C(COC(=O)C1CCC(=O)N1)Nc1ncc(C(F)(F)F)cc1Cl (configuration not stated)	.	2.0
Cc1ccc(C(C(=O)O)N2Cc3ccccc3C2=O)cc1 (configuration not stated)	0.23	-1.7
CCN(CC)CC(=O)Nc1nc2ccc(OC)cc2s1	-0.261	0.5
FC(F)(F)COc1nc(N2CCOCC2)nc(N(c2ccccc2)c2ccccc2)n1	0.798	-0.9
Cc1ccc(-c2nc(Nc3ccccc3F)sc2C)cc1	.	2.9
Cc1nn(-c2ccccc2)c(-n2cccc2)c1C(=O)NC(C)c1ccc2c(c1)OCCO2 (configuration not stated)	-0.0795	0.4
O=C(COC(=O)c1ccccc1)NC1CCCCC1	.	5.1
CC(C)n1cc(-c2noc(-c3cccs3)n2)c(=O)n(Cc2ccccc2)c1=O	.	-1.1
CN1C2CCC1CC(NC(=O)Nc1ccc(OC(F)(F)F)cc1)C2 (configuration not stated)	2.19	.
Cc1ccc(SCc2cn3cccnc3n2)cc1	.	2.4
Cc1c(C(N)=O)nnn1-c1ccc(Cl)cc1	-0.969	0.0
CC(C)(C)NC(=O)Cn1nnc(-c2cccc(C(F)(F)F)c2)n1	.	0.5
COc1cc(/C=C2/C(=N)N3N=C(c4ccccc4C)SC3=NC2=O)ccc1OC(=O)c1ccco1	-0.513	-2.3
O=C(/C=C/c1ccc(O)c(O)c1)OCCc1ccccc1	-0.185	1.8
O=C(CCn1c(=S)oc2ccccc21)NC1CCCCC1	-0.359	-0.2
O=C(Nc1ccc(N2CCN(c3ccc(C(F)(F)F)cn3)CC2)nc1)c1ccco1	.	-1.3
Nc1nc2ccc3c(c2s1)CCCC3	.	-0.5
CCC(=O)c1cc2c(cc1NC(=O)c1cccc(Cl)c1)OCCO2	0.343	-0.1
COc1ccccc1C(=O)N(Cc1ccccc1F)C1CCS(=O)(=O)C1 (configuration not stated)	1.86	-3.2
N#Cc1cccc(NC(=O)Nc2cccs2)c1	0.298	-2.8
COc1cccc(-c2ncc(-c3ccccc3)o2)c1	.	-1.1
O=C(Cn1cnc(S(=O)(=O)N2CCCCC2)c1)N1CCC(Cc2ccccc2)CC1	0.0475	0.2
CCn1c(-c2cc(OC)ccc2OC)cs/c1=N\N=C\c1ccc(O)c(OC)c1	.	1.4
CN(C)/C=C/C(=O)c1ccc(S(=O)(=O)c2ccccc2)cc1	0.129	.
O=C(CSc1cn(CCNC(=O)c2cccs2)c2ccccc12)NC1CCCC1	-0.391	3.7
CCN1C(=O)CC(NCc2ccc3c(c2)OCO3)C1=O (configuration not stated)	-1.32	0.1
Cc1c(C(=O)Nc2ccncc2)cc(-c2ccccc2)n1CCCN1CCOCC1	1.86	1.1
COC(=O)c1ccc(C(c2c(N)n(CC(C)C)c(=O)[nH]c2=O)N2CCN(S(=O)(=O)c3ccc(C)cc3)CC2)cc1 (configuration not stated)	.	1.1
Cc1cc(-c2csc(-c3ccccn3)n2)c(C)n1Cc1ccco1	.	-4.3
O=C1C2C3C=CC(C3)C2C(=O)N1CCO (configuration not stated)	.	0.0
CN(C)/C(=N\S(=O)(=O)c1ccccc1)c1ccccc1	.	-0.6
Oc1oc(-c2ccco2)nc1/C=N/c1ncn[nH]1	1.56	-1.1
CC(=O)Nc1cc(S(=O)(=O)C(F)(F)F)ccc1C	0.0245	2.3
CSC1=NCCCN1C(=O)c1c(-c2ccccc2Cl)noc1C	.	1.0
CCCNC(=O)CSc1nc2sc(C)c(C)c2c(=O)n1C1CCCC1	.	-4.3
Cc1cccc(OCCC(=O)OCc2ncc(-c3ccccc3)o2)c1	.	-4.2
CC1(C)CC(=O)C=C(SCC(=O)Nc2cc(C(F)(F)F)cc(C(F)(F)F)c2)S1	.	2.4
CC/C(=N\NC(C)=O)c1ccc(OC(F)F)cc1	.	0.5
CCCNC(=O)CSC1=NS(=O)(=O)c2ccccc2N1	-0.199	2.6
CC(C)=CCC(C)(C)CNc1ccc(C)cc1	-0.241	4.5
N#Cc1ccccc1CO/N=C(\N)c1nonc1N	-0.655	-1.2
NC(=O)CSc1nnc(C2CC2)n1Cc1ccccc1	0.773	-0.1
CC(=O)Nc1ccc(S(=O)(=O)N2CCN(c3nc4ccccc4s3)CC2)cc1	-1.09	1.2
COC(=O)CSC(=S)N1C(C)CCCC1C (configuration not stated)	.	0.2
Cc1noc(C)c1C(=O)O/N=C(\N)c1ccc(OC(F)(F)F)cc1	-1.35	1.5
Cc1ccc(N2CC(NS(=O)(=O)N(C)C)CC2=O)cc1C (configuration not stated)	0.61	2.3
NC(=O)c1ccsc1NC(=O)CSc1nc(-c2ccccc2)cs1	.	-1.1
CC1CCCCN1S(=O)(=O)c1ccc(S(=O)(=O)NCc2ccc3c(c2)OCO3)cc1 (configuration not stated)	0.152	0.3
CCC(=O)N1N=C(c2c(-c3ccccc3)c3cc(Cl)ccc3[nH]c2=O)CC1c1ccco1 (configuration not stated)	0.516	-0.1
CCOC(=O)c1ccccc1NC(=O)CCN1C(=O)c2ccccc2C1=O	-0.663	-0.6
O=C(COC(=O)COc1ccccc1)Nc1ccccc1	.	-2.6
CCN(C(=O)CSc1nnc(C2CC2)n1-c1ccccc1)C1=CCCC1	.	1.6
CNc1ccccc1C(=O)OCC(=O)c1ccccc1	.	2.6
CN1CCC(=NNC(=O)CCSc2ccc(Cl)cc2)CC1	0.171	-0.7
New compounds follow
SMILES	LANA-nucl inh	BasE inh
CCOC(=O)Cc1csc(NC(=O)c2ccc(S(=O)(=O)N3CCCC3)cc2)n1	.	2.0
CN(C)CCCn1c(-c2ccc(Cl)cc2)c(CC(=O)O)sc1=Nc1ccccc1	.	5.1
Cc1ccc(C)c(NC2(C#N)CCCCC2)c1	-0.293	0.7
CCCC(C)C(=O)N(C)c1ccccc1 (configuration not stated)	-0.007	0.0
O=C(NCCC1=CCCCC1)c1ccc2cn[nH]c2c1	-0.78	1.5
O=C(Nc1ccccc1)Nc1nccc(-c2cc(OCC(F)(F)F)ccc2OCC(F)(F)F)n1	.	-0.2
O=C(Oc1ccc(-c2nnco2)cc1)c1cc(-c2ccccc2)nn1-c1ccccc1	.	1.9
CCOC(=O)N1CCN(C(=O)c2c[nH]c3ccc(S(=O)(=O)N(CC)CC)cc3c2=O)CC1	-0.434	1.6
CC(C)=CC(=O)N1CCCc2ccccc21	-0.456	3.1
COc1ccc(CNC(=O)C(OC(C)=O)c2ccccn2)cc1 (configuration not stated)	0.567	1.8
Cc1nn(-c2ccccc2)c2nc(Cl)c(C3N=C(N)Nc4nc5ccccc5n43)cc12 (configuration not stated)	.	2.8
N#Cc1ccc(Sc2ccc(Cl)cc2)nc1	.	2.0

3 consecutive compounds out of the list so far, for reference:
SMILES	LANA-nucl inh	BasE inh
Cc1nn(-c2ccccc2)c(-n2cccc2)c1C(=O)NC(C)c1ccc2c(c1)OCCO2 (configuration not stated)	-0.0795	0.4
O=C(COC(=O)c1ccccc1)NC1CCCCC1	.	5.1
CC(C)n1cc(-c2noc(-c3cccs3)n2)c(=O)n(Cc2ccccc2)c1=O	.	-1.1

Next part:
SMILES	LANA-nucl inh	BasE inh
O=C(OCCO)c1cc(Cl)c(C(=O)OCCO)cc1Cl	-0.155	1.4
CCOc1ncccc1C(=O)Nc1cc(Cl)ccc1N1CCOCC1	.	1.8
CN(C)c1ccc(/C=C/C(=C(C#N)C#N)C2CC2)cc1	3.11	-16.5
NC(=S)c1cnccc1C(F)(F)F	.	3.9
Cc1ccc(C#N)c(SCCCn2c(=O)[nH]c3ccccc32)n1	0.321	-3.2
CC(C)(O)CC[C@@H](O)[C@](C)(O)C1CC[C@@]2(O)C3=CC(=O)C4CC(O)C(O)CC4(C)C3CCC12C (some centres not stated)	-0.617	-0.5
Cc1onc(-c2ccccc2)c1C(N)=O	-1.32	.
COc1ccc(C(CNS(=O)(=O)c2cccs2)N2CCN(C)CC2)cc1 (configuration not stated)	-0.764	-11.8
Cc1cc(Nc2ccccc2)n2ncnc2n1	-1.06	1.4
CCN(CC)C(=O)C1CCN(Cc2ccccc2F)CC1	-0.87	0.8
C=CCN(CC=C)C(=O)c1ccc(SC)cc1OC	1.3	1.6
CCOc1ccccc1-c1nnc(SC(C(=O)N(C)C)c2ccccc2)o1 (configuration not stated)	.	-1.3

Continued, overlapping the part above by 6 compounds.
SMILES	LANA-nucl inh	BasE inh
Cc1onc(-c2ccccc2)c1C(N)=O	-1.32	.
COc1ccc(C(CNS(=O)(=O)c2cccs2)N2CCN(C)CC2)cc1 (configuration not stated)	-0.764	-11.8
Cc1cc(Nc2ccccc2)n2ncnc2n1	-1.06	1.4
CCN(CC)C(=O)C1CCN(Cc2ccccc2F)CC1	-0.87	0.8
C=CCN(CC=C)C(=O)c1ccc(SC)cc1OC	1.3	1.6
CCOc1ccccc1-c1nnc(SC(C(=O)N(C)C)c2ccccc2)o1 (configuration not stated)	.	-1.3
NC(=O)c1ccccc1NC(=O)CCC1CCCCC1	-1.03	2.8
C/C(=N\OCc1ccc(C#N)cc1)c1ccccc1	.	0.4
CN1/C(=C\C(=O)CN(Cc2ccco2)S(=O)(=O)c2ccc3c(c2)OCCO3)C(C)(C)c2ccccc21	.	-0.1
CCCCn1nnnc1COC(=O)c1cc(OC)c(OC)cc1NC(=O)c1ccco1	.	-0.1
COc1ccc(Cn2c(CO)cnc2SCC(=O)N(C)c2ccccc2)cc1	-0.728	1.2
CCOC(=O)c1c(CC(C)C)csc1/N=C/C1C(=O)CCCC1=O	.	1.1
CN1CC(=O)N(C)c2ccccc21	0.986	3.4
Cc1cc(-n2c(C)cc(C(=O)COC(=O)C(C)Nc3ncnc4sc(C)c(C)c34)c2C)no1 (configuration not stated)	.	0.8
O=C1C2C(c3ccccc3)C=CC(c3ccccc3)C2C(=O)N1CCCO (configuration not stated)	-0.324	0.1
CSc1nc(-c2ccc(Cl)cc2)nn1C(C)=O	-0.127	2.4
O=C(NCc1ccco1)C(c1ccccc1)N(C(=O)Cn1nnc2ccccc21)C1CCCC1 (configuration not stated)	-0.784	1.6
O=C(Nc1ccccc1)c1cccc(S(=O)(=O)N2CCOCC2)c1	-0.066	1.4
Cc1cccc(C(=O)Nc2ccccc2C#N)c1	0.0435	4.5
COCCN1Cc2cccc(C(=O)NCCCN3CCCC3=O)c2C1=O	-0.758	1.0
COc1cc(C(=O)N/N=C(\C)c2ccc(-n3ccnc3)cc2)cc(OC)c1OC	.	2.4
Clc1ccc(-c2csc(-c3ccc4c(c3)CCO4)n2)s1	.	1.0
CC1CCCC(C)N1C(=O)Cc1noc2ccccc12 (configuration not stated)	0.219	3.1
Cc1nn(-c2ccccc2)c(C)c1C(=O)OCC(=O)N(C)C1CCS(=O)(=O)C1 (configuration not stated)	.	1.2
Cc1cc(C#N)c2c(C)ccc(C(C)C)cc1-2	.	3.7
O=C(Nc1ccc(-c2nc3ncccc3o2)cc1)c1ccc(-c2cc3ccccc3oc2=O)cc1	-0.651	0.9
NNC(=O)c1cc2c(s1)-c1ccccc1CC2	.	-1.4
COc1ccc(C2CC(=O)N(CC(=O)NCc3ccco3)c3ccccc3S2(=O)=O)cc1OC (configuration not stated)	2.88	1.5
c1ccc(OCCCn2cnc3ccccc32)cc1	0.0855	0.8
NN1C(=O)NC2(CCCCC2)C1=O	.	-0.7
CCCn1c(=O)cc(N)n(-c2ccc(OC(F)(F)F)cc2)c1=O	.	-0.5
CC(C)[C@H](NC(=O)c1cccc(S(=O)(=O)N2CCOCC2)c1)C(=O)Nc1nc2ccccc2s1	.	-2.0
COC(=O)c1c(NC(=O)CCC(=O)O)sc2c1CCCC2	-0.538	0.2
CCOc1ccc2nc(SCC(=O)O)oc2c1	1.16	1.3
O=C(OCC(=O)N1CCN(c2ccccc2)CC1)C1=COCCO1	.	1.4
CC(c1nnc(-c2cccs2)o1)N1CCC(Cc2ccccc2)CC1 (configuration not stated)	.	0.1
CCC(C)NC(=O)COc1ccc(C(C)(C)c2ccccc2)cc1 (configuration not stated)	.	0.8
COC(=O)CNc1cn[nH]c(=O)n1	0.152	0.8
Cc1cccc(OCC(=O)Nc2ccc(CN3CCOCC3)cc2)c1C	2.25	-2.5
O=C(NCCCN1CCOCC1)c1ccc(NC(=O)c2ccccc2)cc1	-0.792	-0.4
COc1ccc(N(/N=C2\Sc3ccccc3C2=O)C(C)=O)cc1	0.976	-1.8
COC(=O)c1sc(NC(=O)CN2CCCCC2C)c(C(=O)OC)c1C (configuration not stated)	-0.241	-1.8

Ordered by formula weight (lowest first): part of the list above
SMILES	LANA-nucl inh	BasE inh
COC(=O)CNc1cn[nH]c(=O)n1	0.152	0.8
COc1ccc(N(/N=C2\Sc3ccccc3C2=O)C(C)=O)cc1	0.976	-1.8
CC(c1nnc(-c2cccs2)o1)N1CCC(Cc2ccccc2)CC1 (configuration not stated)	.	0.1
